Cruzain inh Det: cruzain (T. cruzi) inhibition with detergent; AID 1478; 0.43% of 200,000 active; purified cruzain, Z-FR-AMC fluorescence, 0.01% Triton; P25779; Potency, µM, for the others: max response, negative = inhibition, hits mostly inhibitors;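 also: plate controls were neutral wells for no effect and buffer without enzyme for full effect; nearly all actives have a fitted effect of over 40% in size; top concentration of the series not given in the record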
Target sequence (P25779 123-467 limits assumed): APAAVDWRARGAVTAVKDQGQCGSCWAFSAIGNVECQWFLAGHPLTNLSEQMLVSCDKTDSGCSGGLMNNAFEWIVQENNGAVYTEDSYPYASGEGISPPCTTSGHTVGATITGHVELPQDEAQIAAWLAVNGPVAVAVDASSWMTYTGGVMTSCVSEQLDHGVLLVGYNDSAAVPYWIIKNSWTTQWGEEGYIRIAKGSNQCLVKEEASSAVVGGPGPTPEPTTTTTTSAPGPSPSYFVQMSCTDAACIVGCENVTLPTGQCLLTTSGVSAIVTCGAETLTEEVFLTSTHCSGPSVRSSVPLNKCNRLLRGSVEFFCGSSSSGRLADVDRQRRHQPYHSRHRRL
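Purified cruzain (1.5 nM final) was preincubated with compounds for 15 min at room temperature in 100 mM sodium acetate pH 5.5, 5 mM DTT, 0.01% Triton X-100. Reaction started with 2 uM Z-FR-AMC; AMC fluorescence change over 60 s gave activity.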
NS1 inh: influenza NS1 inhibition. S. cerevisiae slowed by influenza A NS1, growth recovery by OD600. Potency, µM (series often up to 46.1 µM), for the others: top-dose activity, positive = more growth. 0.4% of 270,000 active. AID 2326; active means well fitted rising curve with a large enough effect; inconclusive means small, poorly fitted or top-dose-only effect; inactive means no such curve, though single readings can be large or run the other way; also: nearly all actives have a fitted effect of over 50% in size
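Compounds were scored for reversing the slow growth caused by influenza A NS1 in S. cerevisiae, measured by optical density at 600 nm. Assay medium contained 2% galactose at pH 6.0; NS1-free yeast of the same strain were the positive control.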
Cruzain inh noDet: cruzain (T. cruzi) inhibition without detergent; purified cruzain, Z-FR-AMC fluorescence, no detergent; Potency, µM, inactives show max response, negative = inhibition, hits mostly inhibitors; 2.3% of 200,000 active;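 also: plate controls were enzyme without inhibitor for no effect and buffer without enzyme for full effect; nearly all actives have a fitted effect of over 40% in size; top concentration of the series not given in the record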
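Detergent-free condition (0.00005% Triton X-100) in acetate buffer pH 5.5 with DTT. 1.5 nM enzyme and compound were pre-mixed 15 min, then 2 uM Z-FR-AMC substrate added; reaction progress from fluorescence change between first and third reads (60 s).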
SARS PLpro yeast: SARS-CoV PLP inhibition in yeast | S. cerevisiae expressing SARS-CoV PLpro, growth rescue; control for the full effect not named in the record | Potency, µM (top dose mostly 32.9 µM), inactives show at the highest dose activity, positive = growth rescue | 0.19% of 330,000 active | AID 485353; active means well fitted rising curve with a large enough effect; inconclusive means small, poorly fitted or top-dose-only effect; inactive means no such curve, though single readings can be large or run the other way; also: 0% is about no effect; nearly all actives have a fitted effect of over 55% in size; growth read by luminescence after 48 h
Marburg entry inh: blocks Marburg virus binding to or entry into cells; 1.8% of 300,000 active; AID 540276; Marburg virus pseudotyped entry inhibition, cell reporter; control for the full effect not named in the record; about a third of the inactives were read at about 46 µM; Potency, µM (titrated, usually from 37.8 µM), for inactives: top-dose activity change, negative = inhibition, hits mostly inhibitors; active = well fitted inhibition curve with a large enough effect; inconclusive = small, poorly fitted or top-dose-only effect, or effect the other way; inactive = flat fitted curve, though single readings scatter; tested in HEK293 cells; about a fifth of its hits are not listed in these tables; also: % is scaled to controls: 0 for no effect and ±100 for the full control effect; luciferase read-out
RE007 growth inh: less growth of the S. pombe RE007 Vpr strain; S. pombe RE007 Vpr strain, BacTiter-Glo ATP luminescence, 24 h; control for the full effect not named in the record; Potency, µM (series often up to 92.2 µM), without a hit: top-dose activity change, negative = less growth; 0.21% of 360,000 active; AID 651644; active = well fitted falling curve with a large enough effect; inconclusive = small, poorly fitted or top-dose-only effect; inactive = no such curve, though single readings can be large or run the other way;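 also: % is scaled to controls: 0 for no effect and ±100 for the full control effect; nearly all actives have a fitted effect of over 50% in size; the assay follows cell death caused by Vpr and the record does not say whether a fall means rescue or toxicity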
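Fission yeast strain RE007, carrying one chromosomally integrated HIV-1 vpr copy, was seeded at OD 0.01 in PMG+AL medium with 23 nL pinned compound. After 24 h at 30 °C and 99% humidity, viability was read by BacTiter-Glo luminescence.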
LASV entry inh: Lassa virus entry inhibition; Potency, µM (doses to about 37.9 µM), without a hit: at the top dose activity change, negative = inhibition, actives largely listed as inhibitors; AID 540256; Lassa virus pseudotype entry inhibition, cell reporter; control for the full effect not named in the record; 1.2% of 300,000 active; active means well fitted inhibition curve with a large enough effect; inconclusive means small, poorly fitted or top-dose-only effect, or effect the other way; inactive means flat fitted curve, though single readings scatter; tested in HEK293 cells; also: % is scaled to controls: 0 for no effect and ±100 for the full control effect; nearly all actives have a fitted effect of over 50% in size; luciferase read-out
StopGo reporter: FMDV 2A StopGo reporter, luciferase signal; human cells with a luciferase reporter of 2A StopGo recoding; control for the full effect not named in the record; 1.2% of 410,000 active; Potency, µM (highest dose often 57.9 µM), without a hit: at the highest dose signal change, negative = less light; active = well fitted falling curve with a large enough effect; inconclusive = small, poorly fitted or top-dose-only effect; inactive = no such curve, though single readings can be large or run the other way; tested in HEK293T cells; also: % is scaled to controls: 0 for no effect and ±100 for the full control effect; nearly all actives have a fitted effect of over 45% in size; luciferase light after 4 h
The depositor's hits bear a star; ? = inconclusive; . = not tested or not shown; & = joins results of further samples; [ ] = another dose, or the depositor's remark. Unless noted, calls follow the shape of the dose curve; as a rule, active = well fitted curve in the direction sought with a large enough effect; inconclusive = small, poorly fitted or top-dose-only effect, or another doubt; inactive = no such curve, though single readings can be large; an effect the other way counts as inactive or inconclusive. Potency is read from the fitted curve at half-maximal effect.

Order of results – Cruzain inh Det | NS1 inh | Cruzain inh noDet | SARS PLpro yeast | Marburg entry inh | RE007 growth inh | LASV entry inh | StopGo reporter
> Cc1ccccc1CSCCNC(=O)CSCc1ccc([N+](=O)[O-])cc1
 : -7.0% | -40% | -6% | -21% | 13% | 0% | 4% | -14%
> C(=N\c1nccs1)/c1c[nH]c2ccccc12
 : 0.7% | -8% | -9% | . | 6%[46.1 µM] | 18% | -14% | -7%
> COc1ccc(NC(=O)c2ccco2)cc1NC(=O)c1ccccc1
 : . | -2% | . | -18% | -18%[46.1 µM] | -12% | -26%[46.1 µM] | 25%
> Cn1c(=O)c(NCCc2ccccc2)c2c3c(cccc31)C(=O)c1ccccc1-2
 : -3.5% | 10% | -15% | -11% | -12%&-12% | 12% | -1% | 0%
> O=Cc1[nH]c2ccccc2c1N(C(=O)CCl)c1ccc([N+](=O)[O-])cc1
 : . | 5% | . | -1% | ? | -6% | ? | -19%
> Cc1cc(C)c(NC(=O)CNC(=O)COC(=O)C2=COCCO2)c(C)c1
 : . | . | . | 2% | 4%[46.1 µM] | 2% | 9% | -11%
> O=C(Nc1ccccc1)SC1CCCCC1
 : . | . | . | . | ? | ? | 23% | 9%
> CCCCC1CCCC12NC(=O)NC2=O (centres undefined)
 : . | 2% | . | 0% | 11%[46.1 µM] | -4% | -13% | -16%
> NC(=O)c1ccc(NC(=O)c2ccc(CN3CCOCC3)cc2)cc1
 : 3.1% | 5% | 8% | 6% | 2% | 7% | 8% | 0%
> c1csc(Cc2nc3ccccc3[nH]2)c1
 : 2.3% | -10% | -15% | -2% | ? | -12% | ? | 0%
> CCOc1ccc(-n2c(SCC(=O)N3CCC(C)CC3)nc3c([nH]c4ccccc43)c2=O)cc1
 : 0.3% | . | -2% | . | . | . | 16%[46.1 µM] | -19%
> COc1ccc(NC(=O)Cn2c(=O)n(CCC(C)C)c(=O)c3cccnc32)cc1Cl
 : -2.6% | . | -5% | . | -2%[46.1 µM] | . | . | -24%
> O=C(CSc1nc2c([nH]c3ccccc32)c(=O)n1-c1ccc(F)cc1)Nc1ccc2c(c1)OCCO2
 : -3.5% | . | ? | . | . | . | -23%[46.1 µM] | -17%
> N#CCCN(C(=O)CN1c2cccc3cccc(c23)S1(=O)=O)c1ccccc1
 : . | . | . | 2% | -7% | -4% | -25% | -25%
> Cc1ccc(-c2nnc(SCC(=O)NCc3ccccc3)o2)cc1
 : 2.4% | . | -5% | . | . | . | 0%[46.1 µM] | 10%

Look-ups from the results shown.
For StopGo reporter, c1csc(Cc2nc3ccccc3[nH]2)c1 has 0%
For StopGo reporter, O=C(CSc1nc2c([nH]c3ccccc32)c(=O)n1-c1ccc(F)cc1)Nc1ccc2c(c1)OCCO2 has -17%

Further records follow:
Order of results – Cruzain inh Det | NS1 inh | Cruzain inh noDet | SARS PLpro yeast | Marburg entry inh | RE007 growth inh | LASV entry inh | StopGo reporter
> CCN1CCCC1CNC(=O)Cn1cnc2ccc(S(=O)(=O)N3CCC(C)CC3)cc2c1=O (centres undefined)
 : 6.5% | ? | -10% | 1% | 5% | -15% | -12% | 5%
> Cc1nn(C)c(C)c1S(=O)(=O)N(CC(=O)NCCCN1CCC(C)CC1)c1ccc(C(C)C)cc1
 : . | -1% | . | 3% | . | -2% | . | -2%
> Cc1cc(C(=O)OCC(=O)NNC(=O)c2cccs2)ccc1[N+](=O)[O-]
 : . | . | . | -3% | 4%[46.1 µM] | -6% | -1% | 2%
> COc1ccc(-n2c(C)c(C(C)=O)c3cc(O)ccc32)cc1
 : 11% | 10% | ? | 11% | -9% | . | . | -18%
> O=C1CC(Sc2ccc(Cl)cc2)C(=O)N1Cc1ccncc1 (centres undefined)
 : . | 3% | . | 1% | . | -14% | . | -22%
> CCOc1ccc2nc(N(CCN(C)C)C(=O)c3cc4ccccc4cc3OC)sc2c1
 : . | 4% | . | -4% | . | 21% | . | -29%
> O=C(C(Cl)Cl)N1CCN(c2ccccn2)CC1
 : -4.8% | 24% | -7% | 21% | -2% | 7% | 1% | -25%
> COc1cc2nc(CN3CCN(c4ncc(C(F)(F)F)cc4Cl)CC3)[nH]c(=O)c2cc1OC
 : 1.2% | -1% | 1% | 10% | . | . | . | .
> COC(=O)c1cc(-c2ccc(OC)cc2)n[nH]1
 : . | -3% | . | -1% | ? | -3% | -2%[46.1 µM] | 33%[activator]
> O=C1N(c2ccc(Cl)cc2)C(c2ccccc2)N2CCCN12 (centres undefined)
 : 3.0% | 5% | 2% | -5% | -4% | -4% | 0% | -10%
> COc1ccccc1C(=O)NNC1=NS(=O)(=O)c2ccccc21
 : . | 6% | . | 2% | 12% | -5% | ? | 15%
> COc1ccc(CC(=O)OCC(=O)Nc2ccc3c(c2)OCO3)cc1OC
 : . | 12% | . | 0% | 1%[46.1 µM] | -11% | 13% | 17%
> O=C(CN1C(=O)C2(SCC(=O)N2c2cccc(Cl)c2)c2ccccc21)NCCc1ccccc1 (centres undefined)
 : -2.2% | . | -17% | . | . | . | ? | -9%
> Cc1ccc(-c2nnn(CC(=O)N3CCN(c4nc5ccccc5s4)CC3)n2)cc1
 : 12% | -4% | 10µM* | 12% | -14% | -29% | 2% | -17%
> CCCCOC(=O)Nc1cc(C(=O)OC)ccc1C(=O)OC
 : -5.2% | -13% | ? | -3% | 15% | 3% | 0% | .

Following part:
Order of results – Cruzain inh Det | NS1 inh | Cruzain inh noDet | SARS PLpro yeast | Marburg entry inh | RE007 growth inh | LASV entry inh | StopGo reporter
> NC(=O)C1(C(N)=O)OC1c1ccccc1 (centres undefined)
 : . | -4% | . | 0% | . | -6% | . | -8%
> O=C(O)c1ccc(OCc2ccc(C(=O)O)o2)cc1
 : . | 6% | . | 1% | 16%[46.1 µM] | -12% | 19%[46.1 µM] | 17%
> COc1cccc(N2CC(C(=O)Nc3c(C)cccc3C)CC2=O)c1 (centres undefined)
 : -0.2% | 0% | -1% | 3% | 4% | 0% | 6% | -8%
> S=P(N1CC1)(N1CC1)N1CC1
 : -2.6% | . | 6% | . | . | -8% | . | -26%&-2%
> COc1cccc(OCC(=O)NC2CCS(=O)(=O)C2)c1 (centres undefined)
 : . | . | . | -3% | -2% | 2% | 11% | -14%
> CCC(C)[C@H](NC(=O)NCc1ccc(F)cc1)C(=O)O (some centres undefined)
 : . | 3% | . | 2% | . | 11% | . | 10%
> Cn1c(=O)c(C(=O)NCCc2ccccc2)c(O)c2ccccc21
 : . | -4% | . | ? | ? | -14% | ? | 19%
> Nc1c(C(=O)c2ccccc2)oc2ccc([N+](=O)[O-])cc12
 : . | -4% | . | -12% | . | -17% | . | 42%[activator]
> O=C(N/N=C\C1C(=O)NC(=S)N(c2ccccc2)C1=O)c1ccc(O)cc1 (centres undefined)
 : . | . | . | -2% | ? | 5% | -11%[46.1 µM] | -9%
> c1ccc(-c2ccccc2-n2cnnn2)cc1
 : -2.9% | 12% | -2% | -7% | 1% | -8% | 5% | 4%
> O=[N+]([O-])c1cccc(N/N=C/c2cccc(O)c2O)c1
 : . | . | . | -6% | ? | 46% | -15% | 26%
> O=C(O)c1ccccc1N/N=C/c1c(Sc2nnnn2-c2ccccc2)nc2ccccn2c1=O
 : . | 6% | . | 0% | . | 14% | . | -13%
> O=C(Cn1c2[n+](c3ccccc31)CC(O)CS2)c1ccccc1 (centres undefined)
 : . | 1% | . | 1% | -11%[46.1 µM] | -1% | 8% | 3%
> N#C/C=C1\Sc2ccccc2C(=O)N1CC(=O)N1CCN(S(=O)(=O)c2ccccc2)CC1
 : 0.3% | -11% | -7% | 1% | -16% | 9% | 16% | 31%[activator]
> Cc1ccc(S(=O)(=O)NCc2ccccc2)cc1
 : -2.6% | 20% | -6% | 3% | . | -14% | . | 75%&54%[activator]

(further entries)
Order of results – Cruzain inh Det | NS1 inh | Cruzain inh noDet | SARS PLpro yeast | Marburg entry inh | RE007 growth inh | LASV entry inh | StopGo reporter
> CC(C(=O)NC(N)=O)N1C(=O)NC(c2ccccc2)(c2ccccc2)C1=O (centres undefined)
 : . | 3% | . | 1% | 24%[46.1 µM] | -10% | 1%[46.1 µM] | 2%
> CCN(Cc1ccccc1)C(=O)c1cccc(S(=O)(=O)N2CCN(c3ccccc3)CC2)c1
 : . | . | . | -5% | -13% | 9% | -10% | -19%
> C=CCNS(=O)(=O)c1ccc(OC)c(C)c1
 : 3.9% | ? | 7% | 0% | -13% | 4% | ? | 28%
> CC(=O)Nc1cccc(C(=O)OCc2csc(CC(=O)Nc3ccccc3C)n2)c1
 : . | . | . | 1% | -17% | 1% | 3% | -13%
> COc1ccc(C(=O)N/N=C(\Cc2ncc[nH]2)c2ccccc2)cc1
 : . | 5% | . | -1% | -16% | -11% | -23% | 0%
> CCc1nc2ccccc2n1CC(=O)Nc1cc(C)on1
 : . | . | . | 1% | ? | 19% | 24%[46.1 µM] | 9%
> CC(C)c1nc2cc(Cl)ccc2n(Cc2ccccc2)c1=O
 : . | -19% | . | -27% | -8%[46.1 µM] | 6% | 14% | 3%
> N#CC(C#N)=C1C=CC=CN1/C(=C\c1ccccc1Cl)C(=O)c1ccccc1
 : -8.6% | -29% | ? | -132% | ? | -10% | ? | ?
> Cc1ccc(CCNC(=O)c2ccc(NC3=NC4CS(=O)(=O)CC4S3)cc2)cc1 (centres undefined)
 : . | 6% | . | 2% | 29%[46.1 µM] | -6% | -28%[46.1 µM] | 7%
> COc1ccc2cc(/C=N/NC(=O)c3ccc(CN(c4cccc(Cl)c4Cl)S(C)(=O)=O)cc3)c(Cl)nc2c1
 : -12% | 13µM* | 25µM* | -7% | 0.56µM* | -21% | ? | ?
> Cc1ccc(N2CCN(S(=O)(=O)c3cccc4ccccc34)CC2)cc1Cl
 : -0.7% | . | -20% | . | -38%[46.1 µM] | . | ? | 0%
> Cc1noc(C)c1COC(=O)Cc1ccc(Cl)c(Cl)c1
 : -4.7% | -33% | 14% | -7% | 9% | 13% | 20% | -26%
> O=S(=O)(c1ccccc1)N(Cc1cccc(F)c1)c1ccccc1
 : . | -8% | . | -4% | 0% | 6% | -1% | -15%
